# Bioassay records as filed in PubChem BioAssay.
# ClpP mod = qHTS Assay for Activators of ClpP; Potency, µM (doses to about 57.5 µM), for inactives: at the top dose activity change, negative = active; purified B. subtilis ClpP, FRET peptide cleavage, 20 min; 340,000 compounds, 1.9% hits; active = well fitted falling curve with a large enough effect; inconclusive = small, poorly fitted or top-dose-only effect; inactive = no such curve, though single readings can be large or run the other way; further: the source files actives as falling curves though it sought activators and does not explain the sign; nearly all actives have a fitted effect of over 65% in size; many hits overshoot -100%
# Target sequence (P80244 whole entry, looked up): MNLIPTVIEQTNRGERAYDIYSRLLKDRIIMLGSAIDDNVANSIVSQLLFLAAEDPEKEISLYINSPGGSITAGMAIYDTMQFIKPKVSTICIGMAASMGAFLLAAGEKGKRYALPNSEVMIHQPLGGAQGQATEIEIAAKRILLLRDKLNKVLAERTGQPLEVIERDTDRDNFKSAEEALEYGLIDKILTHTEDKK
#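 FRET quenching reversal measured ClpP activation: 10 microg/mL B. subtilis ClpP at pH 8 with the FRET-FV decapeptide, read at 430 nm after 320 nm excitation. The 20-min minus 0-min signal was scaled between DMSO/no-enzyme wells and ADEP (5.8 microM final).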
# The depositor's hits bear a star; ? = inconclusive. Potency means the concentration at half of the fitted maximal effect. The list is partial. The share of hits here may be higher or lower than overall.
SMILES,ClpP mod
Cc1cccn2c(=O)c3cc(C#N)c(=O)n(-c4nnc(SCc5ccc(Cl)cc5)s4)c3nc12,4.2%
CCc1c(C)sc(NC(=O)C2c3ccccc3Oc3ccccc32)c1C(=O)OC(C)C,-5.4%
Cc1nc2ccn(Cc3cccs3)c(=O)c2cc1C(=O)N1CCN(c2ccccc2F)CC1,4.4%
CC(C)c1nnc(N2C(=O)c3oc4ccccc4c(=O)c3C2c2cccc(O)c2)s1 (centres undefined),2.4%
CCc1ccc(C2=NN(CCC(=O)NCCc3ccc(OC)c(OC)c3)C(=O)CC2)cc1,-0.4%
O=C(c1ccc(CS(=O)c2ccccc2Cl)o1)N1CCN(c2ccccc2F)CC1 (centres undefined),-0.3%
COc1cc(-c2noc(-c3ccc(NCc4ccccc4)c([N+](=O)[O-])c3)n2)cc(OC)c1OC,0.6%
O=S(=O)(Nc1nc2ccccc2nc1Nc1ccccc1Br)c1ccccc1,4.2%
O=c1cc(/C=C/c2ccc([N+](=O)[O-])cc2)c2ccccc2[nH]1,-0.7%
COC(=O)c1c(NC(=O)c2ccc(S(=O)(=O)N3CCCCC3)cc2)sc2c1CCN(C)C2,29%
COc1ccccc1CNC(=O)c1ccc2c(c1)nnn2C1CCCC1,-0.8%
Cc1ccnc2cc(Cl)cc(Cl)c12,-1.2%
COc1cccc(NC(=O)Cn2cc(C(=O)C3CCCCC3)c3ccccc32)c1,-2.4%
Cc1cc(Br)cn2c(Cc3cccc(F)c3)c(-c3ccc(F)cc3)nc12,-8.1%
Cc1cc(Nc2ccc(F)cc2F)nc(-n2nc(C)cc2C)n1,-3.3%
Cc1oc(-c2ccc(C(=O)NCc3ccccc3)cc2)nc1CN1CCc2ccccc21,-1.9%
COCCCNC(=O)c1nn(-c2ccc(C)cc2)nc1CO,14µM*
CCOC(=O)c1ccc2c(c1)N(CC(=O)Nc1ccc(C)cc1C)C(=O)c1ccccc1S2,-1.7%
Cc1ccc2c(/C=C/c3ccc(N(C)C)cc3)c(C)cnc2c1,2.5%
CCOCCCN(Cc1ccco1)S(=O)(=O)c1cc2c(cc1C)NC(=O)CO2,-2.1%
Cc1cccc(-c2nn3c(=O)cc(CN4CCN(C(=O)c5ccccc5Br)CC4)nc3s2)c1,-1.1%
CNc1ccc(-c2nc(-c3ccncc3)no2)cc1[N+](=O)[O-],1.0%
CCc1nn(CC(=O)NCCCN(CC)CC)c(=O)c2cc3occc3n12,0.2%
O=S1(=O)N[C@H](Cc2ccccc2)COc2cc(N3CC[C@H](O)C3)ccc21,-3.8%
Cc1ccc(NC(=O)Cn2nnnc2-c2ccccc2N)cc1,-1.4%

# Some of the entries so far, tab-delimited:
Molecule	ClpP mod
Cc1ccnc2cc(Cl)cc(Cl)c12	-1.2%
COc1cccc(NC(=O)Cn2cc(C(=O)C3CCCCC3)c3ccccc32)c1	-2.4%
Cc1cc(Br)cn2c(Cc3cccc(F)c3)c(-c3ccc(F)cc3)nc12	-8.1%
Cc1cc(Nc2ccc(F)cc2F)nc(-n2nc(C)cc2C)n1	-3.3%
Cc1oc(-c2ccc(C(=O)NCc3ccccc3)cc2)nc1CN1CCc2ccccc21	-1.9%
COCCCNC(=O)c1nn(-c2ccc(C)cc2)nc1CO	14µM*
CCOC(=O)c1ccc2c(c1)N(CC(=O)Nc1ccc(C)cc1C)C(=O)c1ccccc1S2	-1.7%
Cc1ccc2c(/C=C/c3ccc(N(C)C)cc3)c(C)cnc2c1	2.5%
CCOCCCN(Cc1ccco1)S(=O)(=O)c1cc2c(cc1C)NC(=O)CO2	-2.1%
Cc1cccc(-c2nn3c(=O)cc(CN4CCN(C(=O)c5ccccc5Br)CC4)nc3s2)c1	-1.1%
CNc1ccc(-c2nc(-c3ccncc3)no2)cc1[N+](=O)[O-]	1.0%
CCc1nn(CC(=O)NCCCN(CC)CC)c(=O)c2cc3occc3n12	0.2%
O=S1(=O)N[C@H](Cc2ccccc2)COc2cc(N3CC[C@H](O)C3)ccc21	-3.8%
Cc1ccc(NC(=O)Cn2nnnc2-c2ccccc2N)cc1	-1.4%

# The results go on.
SMILES,ClpP mod
O=C(Cn1nc(C(F)(F)F)c2c1CCCC2)Nc1cccc(Cl)c1,-2.5%
CCc1ccc(CNC(=O)C(CC)n2nc(C)c3c(C)n(-c4ccccc4)nc3c2=O)cc1 (centres undefined),0.0%
O=c1c2oc3ccccc3c2n(Cc2ccccc2)c(=O)n1Cc1ccco1,9.7%
CCOc1ccc(-c2cc3c(=O)n(Cc4nc(-c5cccc(OC)c5OC)oc4C)ccn3n2)cc1Cl,-2.2%
COc1cccc(C(=O)N(Cc2nc(-c3ccc(Cl)cc3)no2)C(C)C)c1OC,-2.6%
O=C(CSc1ccccc1)NCc1ccc2c(c1)CCN2C(=O)c1ccc(F)cc1,-2.2%
CC(C)Cn1c(-c2ccc(S(=O)(=O)N3CCOCC3)cc2)csc1=Nc1cc(Cl)ccc1Cl,0.5%
COc1ccc(CNC(=O)C2=C(C)C(=O)OC23CCCCC3)cc1,-2.0%
O=C1NC[C@@H](CCCCN2C[C@H](Cc3ccc(O)cc3)N(CCC3CCCCC3)C(=O)C2=O)N(Cc2ccccc2)C1=O,2.0%
CCC1CN(C(=O)N2CCC(C(=O)NCCN(CC)CC)CC2)c2cc(C)ccc2O1 (centres undefined),0.4%
Cc1sc2c(c1C)c(=O)n(CCc1ccccc1)c(=O)n2Cc1cccc(F)c1,-1.8%
CCCCCSc1ncnc2c1sc1nc(N3CCOCC3)c3c(c12)CCCC3,-2.3%
O=C(COCc1cc(-c2cccs2)on1)N1CCN(c2cccc(Cl)c2)CC1,-22%
CCn1cc(C(=O)N2CCN(c3ccccc3OC)CC2)c(=O)c2cc(S(=O)(=O)N3CCCCC3)ccc21,-1.9%
COCCCNC(=O)C1CCN(Cc2nc(-c3ccc(OC)c(OC)c3)oc2C)CC1,4.4%
CCOc1c2c(c(-c3ccc4c(c3)OCO4)c3cc(OC)c(OC)cc13)C(=O)OC2,3.6%
COc1ccc(OC)c(S(=O)(=O)N2CC=C(c3c(C)n(CC(=O)N4CCCC4)c4ccccc34)CC2)c1,-5.2%
O=C(CSc1nc2c([nH]c3ccccc32)c(=O)n1-c1ccc(F)cc1)N1CCCc2ccccc21,-20%
COc1ccccc1-n1c(/C=C/c2c(C)n(C)c3ccccc23)nc2ccccc2c1=O,-1.7%
O=C(Nc1cc(C(F)(F)F)ccc1Cl)c1cc(-c2ccc3c(c2)OCCO3)on1,?
COC(=O)c1ccc(C2c3c(oc4cc(C)c(C)cc4c3=O)C(=O)N2c2ccccn2)cc1 (centres undefined),-0.6%
CCSc1ncnc2nc[nH]c12,2.5%
CCCCn1c(CNC(=O)c2ccc(OC)cc2)nnc1SCC(=O)Nc1ccccc1,-2.1%
CCOc1ccc(CCNC(=O)CN2C(=O)COc3ccc(S(=O)(=O)N4CCCCCC4)cc32)cc1,1.1%
Cc1cc(-c2ccccc2)n2nc(-c3cccc(Br)c3)cc2n1,-27%
# Next section
SMILES,ClpP mod
COc1cc(C2NC(=O)N(C)C3=C2C(=O)N(c2ccccc2)C3)ccc1O (centres undefined),-10.0%
COc1ccc(C(=O)Nc2ccc(N3CCOCC3)c(C(F)(F)F)c2)cc1OC,-3.0%
CCNc1nc(NC(C)(C)C)nc(Oc2ccc(=O)n(C)n2)n1,0.3%
Fc1ccccc1Nc1ncnc2c1nc1n2CCCCC1,-1.7%
COc1cccc(-n2c(=O)c3c(C)c(C)sc3n(CC(=O)NCCc3ccc(OC)c(OC)c3)c2=O)c1,0.6%
COc1cccc(-c2oc3c(c2C#CC2(N)CCCCC2)C(O)CCC3)c1 (centres undefined),-8.9%
O=C(NCCOc1ccccc1)C1C(=O)Nc2ccccc2C(=O)N1C1CCCCC1 (centres undefined),-1.6%
CCOc1ccc(/C=C(\C#N)c2nc3ccccc3c(=O)[nH]2)cc1OC,-8.8%
CCOC(=O)c1cc(-c2ccccc2)n(CC(=O)NCc2ccc(C)cc2)c1C,-2.0%
CN1C(=O)c2ccccc2Sc2ccc(NC(=O)NCc3ccccc3Br)cc21,0.8%
Cc1ccc(C)n1-c1nnc(N2CCCC(C(=O)NCc3cccc(F)c3)C2)s1 (centres undefined),-1.0%
CCN(CC)S(=O)(=O)c1ccc2c(c1)N(CC(=O)N1CCN(c3cccc(C(F)(F)F)c3)CC1)C(=O)CO2,-4.0%
Cn1c(=O)c2c(SCC(=O)N3CCc4ccccc43)nc(-c3ccc(Cl)cc3)nc2n(C)c1=O,0.2%
O=C(c1ccccc1F)N1c2nc(-c3ccco3)nn2C2(CCCCC2)[C@@H]2CCCC[C@@H]21,-5.8%
COC(=O)c1c(-c2cccs2)csc1NC(=O)c1cc(OC)c(OC)c(OC)c1,4.5%
O=C(COc1ccccc1C(=O)OCC(=O)N1CCOCC1)Nc1ccc(Br)cc1,-2.1%
CCN(C(=O)CCn1cnc2onc(-c3ccc(F)cc3)c2c1=O)c1ccc(OC)cc1,-0.1%
COc1ccc(S(=O)(=O)N2CCC(C(=O)Nc3ccc(Oc4ccccc4)cc3)CC2)cc1OC,1.4%
Cc1cccc(-c2nc(SCC(=O)Nc3cccc(C(F)(F)F)c3)n3[nH]c(=O)cc3n2)c1,-3.9%
Cc1cccc(/C=C/c2cccs2)n1,-1.7%
O=C(C[C@H]1CC[C@@H](NS(=O)(=O)c2ccccc2)[C@@H](CO)O1)NCc1ccc(Cl)c(Cl)c1,1.9%
O=C(O)CCSc1nnc(-c2ccc(Cl)cc2Cl)o1,-4.8%
CCOC(=O)c1cccc(NS(=O)(=O)c2cn(C)c(C)n2)c1,-0.2%
Cc1cc(C)n2nc(NCc3ccccc3Cl)nc2n1,4.4%
Cc1ccc(-n2nc(CO)c(C(=O)NCc3cccs3)n2)cc1,?

# Two of these compounds in another layout.
compound	ClpP mod
COc1ccc(S(=O)(=O)N2CCC(C(=O)Nc3ccc(Oc4ccccc4)cc3)CC2)cc1OC	1.4%
Cc1cc(C)n2nc(NCc3ccccc3Cl)nc2n1	4.4%

# Next structures
SMILES,ClpP mod
CCN(CC)CCCNC(=O)c1ccc(Cn2c(=O)[nH]c3cc(OC)c(OC)cc3c2=O)cc1,3.9%
COC(=O)c1ccc(C2CC(=O)Nc3c2c(C)nn3-c2nc(C)cc(C)n2)cc1 (centres undefined),-0.7%
CCOC(=O)N1CCN(C(=O)C[C@@H]2C[C@@]3(C(=O)OC)CCCCC=C3N(Cc3cccc4ccccc34)C2=O)CC1,-2.2%
O=C1NC[C@H](CCCCN2C[C@H](Cc3ccc(O)cc3)N(CC3CCCCC3)C(=O)C2=O)N(Cc2ccccc2)C1=O,-0.9%
CC(C)(C)OC(=O)N1CCC[C@@H]1C(=O)N1CCC[C@@H]1C(=O)NCc1ccccc1Cl,0.9%
CCc1ccc2nc(N(Cc3cccnc3)C(=O)c3cccs3)sc2c1,0.0%
CCOC(=O)c1ccc(-c2ccc(N3C(c4ccsc4)=Cc4ccc(F)cc4C3c3c[nH]c4ccc(C#N)cc34)cc2)cc1F (centres undefined),-10%
CCN1CCN(c2oc(-c3ccc(COc4ccccc4C)o3)nc2C#N)CC1,4.1%
Cc1nc(N)c(S(=O)(=O)c2ccccc2)c(Nc2ccc(Br)cc2)n1,-21%
Cc1ccc(CNC(=O)CCCn2c(=O)c3ccccc3n(CC(=O)C(C)(C)C)c2=O)cc1,-12%
COc1cccc(NC(=O)CSc2nc3ccc(NC(=O)c4ccco4)cc3s2)c1,-18%
Cc1ccc(NC(=O)Cn2c(=O)n(Cc3ccccc3)c(=O)c3c(C)c(C)sc32)c(C)c1,-0.1%
Brc1ccc2c(ccc[n+]2CCc2ccccc2)c1,-1.0%
COc1ccc(-n2c(=O)c3ccc(C(=O)NCc4ccc(C)cc4)cc3n(Cc3ccc(C)cc3)c2=O)cc1,1.5%
CC(=O)Nc1ccc(NC(=O)CSc2nccn2C)cc1,-1.7%
Cc1cccc(OCC(=O)Nc2ccc(-c3nc4cc(C)ccc4o3)c(O)c2)c1,-18%
COc1ccc(N2CCN(C(CNC(=O)C(=O)NCCc3ccccc3)c3cccnc3)CC2)cc1 (centres undefined),-2.5%
CC(=O)C1=C(c2ccc(Cl)cc2)N(C(C)=O)n2c(nnc2C2CCCCC2)S1,-2.6%
Cc1cc(C)c(/C=C/c2onc(C)c2S(=O)(=O)N2CCC(C(=O)N3CCN(c4ccc(Cl)cc4)CC3)CC2)c(C)c1,-4.6%
Cc1ccc(C)c(NC(=O)N2CCN(C)c3ncccc32)c1,4.1%
Cc1csc2nc(COC(=O)c3ccc(NC(=O)c4ccccc4Br)cc3)cc(=O)n12,-0.9%
O=C(NCc1ccccc1)C(c1ccc(C(F)(F)F)cc1)n1c(=O)c(-c2ccccc2)nc2ccccc21 (centres undefined),4.3%
CCCn1c(=O)c2sccc2n2c(CCCC(=O)NC3CCC(C)CC3)nnc12 (centres undefined),-3.7%
Cc1ccc(OCCSc2nnc(-c3cccs3)o2)cc1Cl,?
CCc1c(-c2ccccc2)ncn1Cc1cccc(-c2ccccc2)c1,-2.4%
# Continued:
SMILES,ClpP mod
Cc1ccc(-c2nc(S(=O)(=O)c3ccc(Cl)cc3)c(N3CCCCC3)o2)cc1,-2.1%
CN(C1CCCCC1)S(=O)(=O)c1ccc2c(c1)c(=O)c(C(=O)NCc1ccc(F)cc1)cn2C,0.5%
O=C(COc1ccccc1Cl)NCC1(N2CCOCC2)CCCCC1,-0.1%
COc1cc(OC)c(NC2(c3ccccc3)C(=O)c3ccccc3C2=O)cc1Cl,-1.1%
CCCCNC(=O)C[C@@H]1C[C@@]2(C(=O)OC)CC(C)(C)CC=C2N(Cc2cccc3ccccc23)C1=O,3.2%
COc1ccc(N(CC(=O)NCCc2cccc(C)c2)S(=O)(=O)c2c(C)nn(C)c2C)cc1,-0.1%
O=C1c2ccccc2C(c2nnnn2Cc2ccccc2)N1CCCn1ccnc1 (centres undefined),-3.2%
O=C(CCS(=O)(=O)c1cc(Br)cc2c1N(C(=O)C1CC1)CC2)Nc1ccc(Br)cc1F,-0.8%
Cc1cn2c(=O)c(S(=O)(=O)NCCc3ccccc3)c(C)nc2s1,28µM*
